Source: PubChem
StopGo FLuc: lowers the firefly signal of an FMDV 2A StopGo reporter | Potency, µM (titrated, usually from 57.5 µM), without a hit: at the highest dose signal change, negative = less light | HEK cells with a luciferase reporter of 2A StopGo recoding | 120,000 compounds, 0.23% hits; active = well fitted falling curve with a large enough effect; inconclusive = small, poorly fitted or top-dose-only effect; inactive = no such curve, though single readings can be large or run the other way; note: nearly all actives have a fitted effect of over 60% in size; overnight with compound
StopGo RLuc: lowers the Renilla signal of an FMDV 2A StopGo reporter; HEK cells with a luciferase reporter of 2A StopGo recoding; Potency, µM (highest dose often 57.5 µM), for the others: top-dose signal change, negative = less light; 120,000 compounds, 0.32% hits; active means well fitted falling curve with a large enough effect; inconclusive means small, poorly fitted or top-dose-only effect; inactive means no such curve, though single readings can be large or run the other way; note: nearly all actives have a fitted effect of over 55% in size; overnight with compound
An asterisk follows results filed as active; [ ] = remark or other dose. % is set by controls: 0 for no effect and ±100 for the full control effect; potency is the fitted concentration of half-maximal effect.

Results for C=CCN1CCCN(Cc2ccc(C#N)cc2)CC1 ?
StopGo FLuc: 0%; StopGo RLuc: 18%

What do the screens show for `CCCc1ccc(S(=O)(=O)N2CCN(C(=O)C(CC(C)C)NC(N)=O)CC2)cc1` (stereo unspecified)?
StopGo FLuc: -1%; StopGo RLuc: -5%

What do the screens show for `CCOc1ccc(C2C(=O)N(C3CCCCCC3)CC(=O)N2CCc2ccccc2)cc1OC` (stereo unspecified)?
StopGo FLuc: -19%; StopGo RLuc: 1%

What do the screens show for `O=C(CCC(=O)c1ccc(F)cc1)Nc1ccccc1-c1ccccc1`?
StopGo FLuc: -10%; StopGo RLuc: 0%

What do the screens show for `CCOc1ccc(CNC(=O)CCn2cccn2)cc1OC`?
StopGo FLuc: 1%; StopGo RLuc: 1%

What do the screens show for `CCn1c(CN2CCCCC2)nc2cc(NC(=O)c3ccc([N+](=O)[O-])cc3)ccc21`?
StopGo FLuc: 13%; StopGo RLuc: 8%

Results for O=C(CN1CCN(c2ccc(C(F)(F)F)cn2)CC1)NC1CCS(=O)(=O)C1 (stereo unspecified) ?
StopGo FLuc: inconclusive; StopGo RLuc: inconclusive

Results for N#Cc1cccc(C(=O)C(C#N)C(=O)Nc2cccc(C(F)(F)F)c2)c1 (stereo unspecified) ?
StopGo FLuc: 17%; StopGo RLuc: 40%[activator]

Results for Cc1[nH]c2ccc(C(=O)N(Cc3ccccc3)C3CCS(=O)(=O)C3)cc2c1C (stereo unspecified) ?
StopGo FLuc: 7%; StopGo RLuc: 9%

How did NS(=O)(=O)c1ccc(N/N=C/c2ccccc2C(F)(F)F)c([N+](=O)[O-])c1 do in these assays?
StopGo FLuc: -5%; StopGo RLuc: -13%

How did COc1ccc(CCNC(=O)CSc2nnc(-c3ccc(C)cc3)c(-c3ccc(C)cc3)n2)cc1OC do in these assays?
StopGo FLuc: -5%; StopGo RLuc: 0%

Results for Nc1ccc(S(=O)(=O)c2ccc(N)cc2)cc1 ?
StopGo FLuc: -23%; StopGo RLuc: -2%

What do the screens show for `CCC(C(=O)Nc1cc(OC)ccc1OC)n1nnc(C(=O)OC)c1C(=O)OC` (stereo unspecified)?
StopGo FLuc: 11%; StopGo RLuc: 2%

How did O=[n+]1cc(-c2ccccc2)n([O-])c2ccccc21 do in these assays?
StopGo FLuc: 0%; StopGo RLuc: 11%

What do the screens show for `COc1cccc(Oc2cnc(N)nc2-c2ccc(OCc3ccccc3)cc2O)c1`?
StopGo FLuc: 11%; StopGo RLuc: 24%

How did CC(NC(=O)CC1CCCC1)c1ccccc1F (stereo unspecified) do in these assays?
StopGo FLuc: -2%; StopGo RLuc: 7%

How did Cn1c(=O)n(C)c2cc(S(=O)(=O)Nc3ccccc3C(=O)O)ccc21 do in these assays?
StopGo FLuc: -17%; StopGo RLuc: -13%

What do the screens show for `CCOc1ccccc1NC(=O)Cn1c(=O)n(Cc2ccco2)c(=O)c2sc3ccccc3c21`?
StopGo FLuc: inconclusive; StopGo RLuc: -9%

What do the screens show for `COC(=O)c1[nH]c2cc(Cl)ccc2c1C=O`?
StopGo FLuc: 8%; StopGo RLuc: 8%

What do the screens show for `CC(N)C(=O)c1ccccc1` (stereo unspecified)?
StopGo FLuc: 15%; StopGo RLuc: 12%

How did Cc1ccc(C)c(NC(=O)CSc2nc(-c3ccccc3Cl)nc3c2Cc2c(CO)cnc(C)c2O3)c1 do in these assays?
StopGo FLuc: 5%; StopGo RLuc: -24%

Results for CN(C(=O)c1ccc(C(=O)N(C)c2ccccc2)cc1)c1ccccc1 ?
StopGo FLuc: 7%; StopGo RLuc: -1%

How did Cc1ccc(NC(=O)CCc2ncc(-c3ccccc3)o2)nc1 do in these assays?
StopGo FLuc: 133%[activator]; StopGo RLuc: 9%

How did Cc1cccc(OC(=O)c2nc(SCc3ccccc3F)ncc2Cl)c1 do in these assays?
StopGo FLuc: -10%; StopGo RLuc: -1%

The last 2 entries of the part above lead into the next:
How did Cc1ccc(NC(=O)CCc2ncc(-c3ccccc3)o2)nc1 do in these assays?
StopGo FLuc: 133%[activator]; StopGo RLuc: 9%

How did Cc1cccc(OC(=O)c2nc(SCc3ccccc3F)ncc2Cl)c1 do in these assays?
StopGo FLuc: -10%; StopGo RLuc: -1%

How did Cc1ccc2oc(C(=O)NCC(c3cccs3)N3CCCCCC3)cc(=O)c2c1 (stereo unspecified) do in these assays?
StopGo FLuc: 6%; StopGo RLuc: 5%

How did CC(C)=CCC[C@@]1(C(=O)O)[C@H]2CC=C(CO)[C@@H]1CC/C(C)=C/CC/C(C)=C/C2 do in these assays?
StopGo FLuc: inconclusive; StopGo RLuc: inconclusive

What do the screens show for `COc1ccccc1CNC(=O)CN1C(=O)CCc2cc(S(=O)(=O)N3CCOCC3)ccc21`?
StopGo FLuc: 12%; StopGo RLuc: 16%

What do the screens show for `CNc1c(NC(=O)Nc2ccccc2Cl)c(=O)oc2ccccc12`?
StopGo FLuc: 4%; StopGo RLuc: 1%

How did O=C(CCCn1c2ccccc2c(=O)c2ccccc21)Nc1cccc(Cl)c1 do in these assays?
StopGo FLuc: -17%; StopGo RLuc: -12%

What do the screens show for `CCCN(CCC)C(=O)Cn1cnc2c1c(=O)n(C)c(=O)n2C`?
StopGo FLuc: -3%; StopGo RLuc: -13%

How did CC(NC(=O)c1cccc(S(=O)(=O)Nc2ccc3c(c2)OCO3)c1)c1ccc2c(c1)OCCO2 (stereo unspecified) do in these assays?
StopGo FLuc: -6%; StopGo RLuc: 76%[activator]

Results for CCC(Sc1nnc2c(n1)[nH]c1ccccc12)C(=O)Nc1nnc(C(C)C)s1 (stereo unspecified) ?
StopGo FLuc: 0%; StopGo RLuc: 1%

What do the screens show for `CCOCCCNC(=O)C(NC(=O)C1CCC(C)CC1)C(C)CC` (stereo unspecified)?
StopGo FLuc: 6%; StopGo RLuc: -3%

How did CNc1c(NC(=O)NCc2ccccc2)c(=O)oc2ccccc12 do in these assays?
StopGo FLuc: 7%; StopGo RLuc: 0%

How did O=[N+]([O-])c1ccc(Nc2ccccc2Cl)c2nonc12 do in these assays?
StopGo FLuc: 9%; StopGo RLuc: inconclusive

Results for N#Cc1nc(COc2ccc(Br)cc2)oc1NCc1cccnc1 ?
StopGo FLuc: 0%; StopGo RLuc: 16%

How did CN(C(=O)C1CCCN(c2ncnc3c2nc2n3CCCCC2)C1)c1ccccc1F (stereo unspecified) do in these assays?
StopGo FLuc: inconclusive; StopGo RLuc: inconclusive

What do the screens show for `O=C(NCCCN(C(=O)c1cccnc1)C1CCCCC1)c1nc2ccccc2c(=O)[nH]1`?
StopGo FLuc: 12%; StopGo RLuc: -9%

Results for O=S(=O)(/C=C/c1ccccc1)Nc1ccc(Sc2nncs2)cc1 ?
StopGo FLuc: 13%; StopGo RLuc: 287%[activator]

What do the screens show for `COCCNC(=O)CS(=O)(=O)Cc1nc(-c2cccc(OC)c2)oc1C`?
StopGo FLuc: 6%; StopGo RLuc: 0%

What do the screens show for `CCS(=O)(=O)c1ccc(C(=O)N2CCN(c3nc4c(OC)ccc(C)c4s3)CC2)cc1`?
StopGo FLuc: 0%; StopGo RLuc: -10%

How did Clc1cccc(C(c2ccc3nc[nH]c3c2)n2ccnc2)c1 (stereo unspecified) do in these assays?
StopGo FLuc: -3%[11.5 µM]; StopGo RLuc: -2%

How did CNC(=O)CN(C)C(=O)c1ccc(N2CCNCC2)c(NS(=O)(=O)c2ccc(C)c(C)c2)c1 do in these assays?
StopGo FLuc: -5%; StopGo RLuc: -11%

How did CCOC(=O)c1[nH]c(C)c(CCC(=O)N2CCN(c3ccc(OC)cc3)CC2)c1C do in these assays?
StopGo FLuc: -4%; StopGo RLuc: 15%

What do the screens show for `CCC1CN(S(=O)(=O)c2ccc3c(c2)NC(=O)CC(=O)N3)c2cc(Cl)ccc2O1` (stereo unspecified)?
StopGo FLuc: -19%; StopGo RLuc: 1%

Results for CCCCc1cc(=O)oc2c(C)c(OC(C)C(=O)NCc3cccnc3)ccc12 (stereo unspecified) ?
StopGo FLuc: -2%; StopGo RLuc: 12%

Results for CCOc1ccc(CCNC(=O)CCc2c(C)nc3c4c(C)cc(C)nc4nn3c2C)cc1 ?
StopGo FLuc: 168%[activator]; StopGo RLuc: 62%[activator]

What do the screens show for `Cc1nn(C)c2c1c(-c1ccccc1)cc(=O)n2CC(=O)Nc1ccccc1C(F)(F)F`?
StopGo FLuc: inconclusive; StopGo RLuc: inconclusive

Part of the list above in order of count of non-hydrogen atoms, high to low.
Results for CCOc1ccc(CCNC(=O)CCc2c(C)nc3c4c(C)cc(C)nc4nn3c2C)cc1 ?
StopGo FLuc: 168%[activator]; StopGo RLuc: 62%[activator]

What do the screens show for `O=C(NCCCN(C(=O)c1cccnc1)C1CCCCC1)c1nc2ccccc2c(=O)[nH]1`?
StopGo FLuc: 12%; StopGo RLuc: -9%

What do the screens show for `CCS(=O)(=O)c1ccc(C(=O)N2CCN(c3nc4c(OC)ccc(C)c4s3)CC2)cc1`?
StopGo FLuc: 0%; StopGo RLuc: -10%

How did CCOC(=O)c1[nH]c(C)c(CCC(=O)N2CCN(c3ccc(OC)cc3)CC2)c1C do in these assays?
StopGo FLuc: -4%; StopGo RLuc: 15%

Results for CCCCc1cc(=O)oc2c(C)c(OC(C)C(=O)NCc3cccnc3)ccc12 (stereo unspecified) ?
StopGo FLuc: -2%; StopGo RLuc: 12%

What do the screens show for `COCCNC(=O)CS(=O)(=O)Cc1nc(-c2cccc(OC)c2)oc1C`?
StopGo FLuc: 6%; StopGo RLuc: 0%

Results for O=S(=O)(/C=C/c1ccccc1)Nc1ccc(Sc2nncs2)cc1 ?
StopGo FLuc: 13%; StopGo RLuc: 287%[activator]

How did Clc1cccc(C(c2ccc3nc[nH]c3c2)n2ccnc2)c1 (stereo unspecified) do in these assays?
StopGo FLuc: -3%[11.5 µM]; StopGo RLuc: -2%

(listing goes on)
Results for Cc1cccc2[nH]c(C(=O)OCC(=O)Nc3ccccc3)cc12 ?
StopGo FLuc: 7%; StopGo RLuc: -7%

Results for CCC1CN(C(=O)N2CCC(C(=O)NCCOC)CC2)c2ccccc2O1 (stereo unspecified) ?
StopGo FLuc: -18%; StopGo RLuc: 4%

How did COC(=O)c1ccc(NC(=O)CCn2cnnn2)cc1 do in these assays?
StopGo FLuc: 14%; StopGo RLuc: 5%

How did Cn1c(=O)n(C)c2cc(SC3CCCCC3)c(NS(=O)(=O)c3cccc(Cl)c3)cc21 do in these assays?
StopGo FLuc: -1%; StopGo RLuc: 11%

How did CSc1nc(-c2ccc(Cl)cc2)c(C#N)c(N2CCN(C)CC2)n1 do in these assays?
StopGo FLuc: 6%; StopGo RLuc: -6%

How did COc1ccc(Cl)cc1NC(=O)c1sc(-n2nc(C)c(Cc3ccccc3)c2C)nc1C do in these assays?
StopGo FLuc: -15%; StopGo RLuc: -2%

How did N#Cc1nc(/C=C/c2ccccc2)oc1N1CCN(c2ccccc2)CC1 do in these assays?
StopGo FLuc: 11%; StopGo RLuc: -3%

Results for CC(C)Cc1nnc(NC(=O)c2ccc3ccn(C)c3c2)s1 ?
StopGo FLuc: 217%[activator]; StopGo RLuc: 3%

Results for COc1ccc(OC)c(NC(=O)CSc2nc(-c3ccccc3)nc3c2COC(C)(C)C3)c1 ?
StopGo FLuc: -4%; StopGo RLuc: -2%

What do the screens show for `COCCCNc1nc(NCc2ccccc2OC)c2cnn(C)c2n1`?
StopGo FLuc: -8%; StopGo RLuc: -18%

What do the screens show for `Nc1ccc(OC2CCCC2)c(Cl)c1`?
StopGo FLuc: 71%[activator]; StopGo RLuc: 17%

Results for O=C(CNC(=O)c1ccccc1F)OCc1cc(=O)n2nc(C3CC3)sc2n1 ?
StopGo FLuc: -7%; StopGo RLuc: -12%

Results for O=C(CCc1ccco1)Nc1ccc(N2CCCC2)cn1 ?
StopGo FLuc: 215%[activator]; StopGo RLuc: 39%

What do the screens show for `COCc1cc(C)nc2sc3c(c12)NCN(c1ccccc1C)C3=O`?
StopGo FLuc: 10%; StopGo RLuc: 2%

What do the screens show for `COc1ccccc1CNS(=O)(=O)c1cc(-c2cc(C)no2)ccc1C`?
StopGo FLuc: 14%; StopGo RLuc: 267%[activator]

Results for CSc1ncc(C(=O)Nc2ccc(F)cc2F)c(-c2ccccc2)n1 ?
StopGo FLuc: 7%; StopGo RLuc: 4%

Results for CCN(CC)S(=O)(=O)c1ccc(-c2csc(-c3ccc(OC)c(OC)c3)n2)cc1 ?
StopGo FLuc: -13%; StopGo RLuc: -20%

How did COc1ccc(Cc2nnc(NC(=O)C3CCCO3)s2)cc1 (stereo unspecified) do in these assays?
StopGo FLuc: 0%; StopGo RLuc: -7%

What do the screens show for `CCN(C(=O)c1oc2c(c1C)C(=O)CC(C)(C)C2)c1ccccc1`?
StopGo FLuc: -5%; StopGo RLuc: 1%

What do the screens show for `COc1ccc(C(=O)Nc2cccc(NC(C)=O)c2)cc1Br`?
StopGo FLuc: 64%[activator]; StopGo RLuc: 7%

What do the screens show for `Cc1ccc(N(Cc2cccs2)C(=O)c2ccccc2Cl)cc1`?
StopGo FLuc: -22%; StopGo RLuc: 5%

Results for Cc1cccc(NC(=O)Cc2nn(C)c(=O)c3ccccc23)c1C ?
StopGo FLuc: inconclusive; StopGo RLuc: inconclusive

How did Cc1ccc(Cc2nc3ccccc3nc2SCC(=O)N2CCC(C)CC2)cc1 do in these assays?
StopGo FLuc: 22%; StopGo RLuc: 177%[activator]

What do the screens show for `CC(C)C(=O)OCc1cc(=O)n2nc(C3CC3)sc2n1`?
StopGo FLuc: -3%; StopGo RLuc: 1%

How did O=C(CN1CCCN(Cc2cccc(F)c2)S1(=O)=O)Nc1ccc2c(c1)OCCO2 do in these assays?
StopGo FLuc: -15%; StopGo RLuc: 32%[activator]

How did O=C(Cc1n[nH]c(=O)c2ccccc12)Nc1cccc(S(=O)(=O)Nc2cccc(Cl)c2)c1 do in these assays?
StopGo FLuc: -10%; StopGo RLuc: 13%

The list is partial (hit frequency here may not be typical).
